Bead autofluor = counter-screen for toxin protease inhibitors: compound fluorescence. compound autofluorescence counterscreen, microsphere flow cytometry; stronger effect = higher value. fluorescence intensity (concentration not given with the values). AID 624483. 360,000 tested, 3.1% active;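 active = at least 3 SD above the mean of all compounds, about 16000 in these data; inconclusive = too few beads counted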;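 also: 100 nL of 1 mM stock went into each well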
PrP UTR inh = inhibition of PrP 5' UTR reporter expression; inhibition, % (no concentration beside the values); cell-based PrP 5' UTR mRNA reporter, plate reader; 340,000 tested, 0.35% active;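 active = every replicate at 50% or more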;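 also: 0 = median of the neutral control wells; tested in H4 reporter cells; numbers are from one replicate; inactives centre near -14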
Sa ugtP lethal = growth inhibition of ugtP-null S. aureus, primary screen, RN4220 ugtP deletion, OD600; 16 h; some inactives read as strong as hits; growth inhibition, % (test concentration not listed); 330,000 tested, 0.54% active;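 active = z-score under -3 and OD600 up to 0.15 on both plates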;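 also: plate controls were untreated wells for no effect and antibiotic for full effect; wells of about 80 µL received 100 nL stock; the first replicate is given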
BJeLR lethal = MLPCN primary cell-based screen for lethality selective to Ras in HRASV12 cells | BJeLR (HRASV12) viability, CellTiter-Glo ATP luminescence, 48 h; reference of the scale not given here | inhibition, % (test concentration not listed) | 300,000 tested, 0.17% active | AID 1554, 2009;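 active = replicate mean above 50%; inconclusive = above 50% but judged a plate artefact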;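 also: 50 nL library stock added to about 25 µL; numbers are from one replicate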
Mtb hypoxia inh = PubChem AID 1159583; M. tuberculosis hypoxia-regulated fluorescent reporter, fluorescence; fluorescence inhibition, % (test concentration not listed); 300,000 tested, 0.1% active;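 active = 35 to 45% if threefold the growth effect, above 45% if 1.5-fold the growth effect; inactive = the rest, general growth blockers included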;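 also: wells of about 50 µL received 100 nL stock; 0% = vehicle wells and 100% = reference inhibitor wells; whole bacteria with a GFP reporter of the hypoxia response; strong numbers were not always called active; many hits fall short of the cut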
Sa RN4220 lethal = growth inhibition of S. aureus RN4220, primary screen, OD600 | 330,000 tested, 0.33% active | AID 1259311, 2017 | inhibition, % (no concentration beside the values) | 16 h;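 active = z-score of -3 or lower and OD600 up to 0.18 on both plates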;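 also: plate controls were untreated cells for no effect and reference antibiotic for full effect; stock transfer was 100 nL into about 80 µL; one replicate is shown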
Mtb hypoxia inh growth = recorded beside Mtb hypoxia inh, whose call it bears; growth inhibition, %; measured here: M. tuberculosis growth (absorbance);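 0% = vehicle and 100% = reference antibiotic; read after six days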
* marks the source's active call; other numbers are inactive results; ? = inconclusive; nt = not tested or not shown. Rows are unselected; any-hit rate near 4%.

SMILES	Bead autofluor	PrP UTR inh	Sa ugtP lethal	BJeLR lethal	Mtb hypoxia inh	Mtb hypoxia inh growth	Sa RN4220 lethal
CC(C)(C)c1ccc(N2C(=O)CSC2c2cccnc2)cc1 (centres undefined)	6057	-18.0	8.1	5.7	6.6	-7.9	5.1
CCOc1ccc(-n2c(=O)c3ccccc3c3ccccc3c2=O)cc1	3752	-26.4	1.3	-6.0	nt	nt	3.8
CCOc1ccc(NC(=O)c2ccncc2)cc1	4825	-15.3	2.9	-2.0	nt	nt	-0.6
COC(=O)CN1C(=O)N/C(=C/c2cc3c(cc2OC)OCO3)C1=O	4368	-18.9	-2.9	-9.6	10.4	5.5	2.6
O=C(NC(=S)Nn1cnc2c(cnn2-c2ccccc2)c1=O)c1ccc(Oc2ccccc2)cc1	2144	-50.0	5.4	1.6	-5.8	-3.5	10.4
CCn1c(CN2CCOCC2)nnc1SCC(=O)Nc1ccccc1C	?	-8.1	nt	-0.8	nt	nt	nt
CCCCC(=O)N(CCOC)c1nnc(-c2cccnc2)s1	4383	-99.2	9.6	2.5	20.1	5.4	8.8
C=CCOc1c2ccc(C(=O)NCc3ccccc3OC)cc2nn1C	3010	-9.1	-11.5	-4.7	10.7	12.5	1.3
COc1ccc(CNC(=O)COC(=O)/C=C/c2cccc(Br)c2)cc1	4089	-2.6	4.1	2.3	7.0	0.6	2.1
COc1cc(/C=C/C(=O)c2ccc3c(c2)OCO3)cc(Cl)c1O	5679	-43.4	-0.1	4.5	3.9	15.1	9.1

Record cards, from the list above. Values in the order: Bead autofluor, PrP UTR inh, Sa ugtP lethal, BJeLR lethal, Mtb hypoxia inh, Mtb hypoxia inh growth, Sa RN4220 lethal
COc1ccc(CNC(=O)COC(=O)/C=C/c2cccc(Br)c2)cc1 is listed with 4089, -2.6, 4.1, 2.3, 7.0, 0.6, 2.1
O=C(NC(=S)Nn1cnc2c(cnn2-c2ccccc2)c1=O)c1ccc(Oc2ccccc2)cc1 is listed with 2144, -50.0, 5.4, 1.6, -5.8, -3.5, 10.4
CCn1c(CN2CCOCC2)nnc1SCC(=O)Nc1ccccc1C is listed with ?, -8.1, nt, -0.8, nt, nt, nt

(listing goes on)
SMILES	Bead autofluor	PrP UTR inh	Sa ugtP lethal	BJeLR lethal	Mtb hypoxia inh	Mtb hypoxia inh growth	Sa RN4220 lethal
Cc1c(CC(=O)NCCCC(=O)O)c(=O)oc2cc3oc4c(c3cc12)CCCC4	3611	-11.8	5.0	11.7	-5.0	2.7	-0.8
O=C(COc1ccc2ccccc2c1)NNC(=O)Nc1ccc(F)cc1F	5760	-11.6	-2.9	6.8	2.9	1.4	4.2
COc1ccc(-n2nc([N+](=O)[O-])c(=NCc3cccnc3)n2O)cc1	9149	-7.5	nt	-7.8	nt	nt	nt
COC(=O)C(CCSC)NC(=O)c1cc2c(n(-c3ccc(C)cc3)c1=O)CCCC2=O (centres undefined)	2032	-1.3	2.4	0.6	17.0	8.2	3.3
CN(CC(=O)Nc1ccc(N2CCOCC2)cc1)C(=O)CCNC(=O)c1ccccc1Cl	5172	-32.0	-0.1	9.2	4.6	0.5	0.8
Cc1cc(N/N=C2/CCCc3ccccc32)nc2ccccc12	4274	-32.2	nt	6.0	nt	nt	nt
CC1CCCN(CCCNC(=O)c2nn(C)c3c2CSc2ccccc2-3)C1 (centres undefined)	5239	-21.9	17.6	5.2	17.5	11.8	-2.1
CN1CCN(C(=O)c2ccc(N(C)S(=O)(=O)c3cccs3)cc2)CC1	4988	-17.0	4.7	-6.0	5.0	2.5	6.7
Cc1ccc(NC(=O)c2cccc3c2-c2ccccc2C3=O)cc1C	5754	-17.0	58.6	7.3	-4.9	8.7	0.4
O=C(COC(=O)COc1ccccc1)Nc1cccnc1Cl	5866	-35.2	2.6	nt	-2.1	0.5	3.7
CCn1cc(SCC(=O)NCc2ccc3c(c2)OCO3)c2ccccc21	6436	-6.5	5.8	5.7	4.4	-2.0	5.8
CC(C)C1COC(c2cccc(C3=NC(C(C)C)CO3)c2)=N1 (centres undefined)	nt	nt	3.0	nt	12.4	8.2	4.2
CCOc1ccc(C(=O)N2CCCN(C(=O)c3ccc(OCC)cc3)CC2)cc1	10737	-23.6	4.4	3.7	12.7	3.6	2.1
COc1ccccc1NC(=O)Cc1nnc(SCC(=O)NC2=NCCS2)n1C	4415	0.8	-2.2	-0.1	-8.0	-6.8	-0.3
CCOc1ccc(C2NC(=O)c3sc(=S)n(-c4ccccc4)c3N2)cc1 (centres undefined)	2499	-10.1	nt	16.0	nt	nt	nt
Cc1cc(NS(=O)(=O)c2ccc(NC(=O)c3cc4ccccc4o3)cc2)nc(C)n1	3050	-9.5	5.1	-1.8	3.6	11.2	1.4
O=C(NN=Cc1ccccc1F)NC12CC3CC(CC(C3)C1)C2	nt	nt	1.8	nt	-1.5	9.4	0.8
CCOC(=O)C1CCN(CC(=O)c2c(C)[nH]c3cc(C)ccc23)CC1	4392	-11.1	-9.9	3.1	nt	nt	-5.0
CC(C)C(=O)Nc1nnc(Cc2ccccc2)s1	15030	-48.0	-1.4	-14.4	-6.2	-0.5	1.5
Cc1c(C(=O)Nc2nnc(C3CC3)s2)oc2c(Cl)cccc12	nt	3.5	-1.3	11.3	-15.8	-26.1	17.4
CC(=O)/C(C#N)=C1\NC(=O)C(Cc2ccccc2C)S1 (centres undefined)	6133	nt	3.5	17.2	1.0	-0.5	20.0
O=C(CCNC(=O)c1ccco1)NCCc1ccc(Cl)cc1	?	-19.3	11.7	-2.6	0.7	-3.1	2.5
Cc1csc(NC(=O)COCC(=O)O)c1-c1nc2ccccc2s1	3713	-8.2	-6.2	9.6	0.3	-6.4	9.1
CN1C(=O)/C(=C/c2cn(CC(=O)NCc3ccco3)c3ccccc23)NC1=S	nt	nt	4.4	-3.7	12.1	2.0	-4.1
CC(=NNC(=O)Cn1ccc(C(F)(F)F)n1)c1ccco1	nt	nt	-0.8	nt	10.7	-0.5	1.0
O=C(NC1CCCCC1)N(Cc1nc2ccccc2c(=O)[nH]1)C1CCCC1	2785	-56.7	3.3	-10.3	-3.0	2.5	5.2
COc1cc(OC)cc(C(=O)N[C@H](C(=O)Nc2nc3ccc(S(C)(=O)=O)cc3s2)C(C)C)c1	5051	-27.0	-4.3	-8.2	11.2	2.5	6.3
COc1ccc(C2=[N+]([O-])C(C)(C)N(O)C2C)cc1 (centres undefined)	3472	-23.4	6.1	-2.0	nt	nt	-2.6
CCOc1cc(/C=C2\C(=O)N(c3cccc(C(F)(F)F)c3)C(=O)c3ccccc32)ccc1O	2082	-9.9	-10.4	7.8	2.4	9.2	6.3
O=C(C1CCCC1)N1CCN=C1SCc1cccc([N+](=O)[O-])c1	4109	-0.7	0.9	-18.2	11.4	7.7	1.3

As entered above:
Cc1csc(NC(=O)COCC(=O)O)c1-c1nc2ccccc2s1 @ Bead autofluor: 3713
COc1cc(OC)cc(C(=O)N[C@H](C(=O)Nc2nc3ccc(S(C)(=O)=O)cc3s2)C(C)C)c1 @ Mtb hypoxia inh growth: 2.5
CC(=NNC(=O)Cn1ccc(C(F)(F)F)n1)c1ccco1 @ Sa RN4220 lethal: 1.0

(further entries)
SMILES	Bead autofluor	PrP UTR inh	Sa ugtP lethal	BJeLR lethal	Mtb hypoxia inh	Mtb hypoxia inh growth	Sa RN4220 lethal
CC(C)(C)NC(=O)CSc1nc(O)cc(=O)n1-c1ccccc1F	3266	0.0	8.5	-0.6	8.6	6.9	3.6
Cc1c(N=C2C=C(Br)C(=O)C(Br)=C2)c(=O)n(-c2ccccc2)n1C	3667	-15.8	10.5	nt	7.7	4.6	5.3
Cc1ccc(S(=O)(=O)NNC(=S)NCCc2ccccc2)cc1	4890	-9.1	8.3	-3.4	0.0	-15.9	6.2
Cc1ccc(O)c(C(=O)c2coc(=N)c(C(=O)NC(C)C)c2)c1	20781*	-23.5	3.7	10.1	7.4	15.1	3.6
COC(=O)c1cnc2c(C(F)(F)F)cccc2c1OC	5539	-4.6	-0.3	nt	nt	nt	0.9
COc1cc(Br)c(CN2C(=O)NC3(CCCCCC3)C2=O)cc1OC	5693	-7.1	-2.4	-0.3	-12.6	-7.0	-3.0
Cc1ccccc1CSc1nnc(CCCCCNC(=O)OC(C)(C)C)o1	3659	nt	3.2	18.1	1.1	10.0	4.0
COc1ccc(/C=C/c2nc3ccccc3n2Cc2ccc(OC)c(OC)c2)cc1	2147	-83.1	10.5	5.7	8.8	-6.4	2.3
O=C(NCCN1C(=O)S/C(=C\c2ccc(OC(F)F)cc2)C1=O)C1=COCCO1	nt	-19.3	-0.4	19.4	5.2	13.3	3.8
Cc1nc(Cl)cc(N/N=C/c2ccc(O)cc2)n1	3184	-47.0	nt	-4.5	nt	nt	nt
Cc1ccc(CNC(=O)CN(C)S(=O)(=O)c2cccc3nsnc23)cc1	2295	-10.8	-5.1	0.3	nt	nt	-1.6
O=C(CC12CC3CC(CC(C3)C1)C2)N1CCCC1	7724	-26.4	-2.8	-2.9	nt	nt	4.8
O=C(CSc1nnnn1C1CCCCC1)Nc1ccccc1N1CCOCC1	4264	-14.0	8.3	3.3	0.5	8.9	1.2
O=C(NCc1cccnc1)c1cccc(-c2cc3ccccc3oc2=O)c1	2094	-11.7	-0.6	-0.9	1.4	8.1	8.3
CCOC(=O)C1=C(COC(=O)/C=C/c2ccc(SC)cc2)NC(=O)NC1C (centres undefined)	4801	-8.8	5.0	-3.3	2.8	-0.5	3.8
COc1ccc(Cc2nnc(SCC(=O)N(C)CC(=O)Nc3ccc(C)cc3)o2)cc1	5572	-8.1	1.8	-0.7	9.2	-2.0	5.7
O=C(N/N=C/c1cccs1)c1ccccn1	9717	-139.9	nt	1.6	nt	nt	nt
COc1ccc(NC(=S)N(Cc2ccc(C(=O)O)cc2)Cc2ccc(OC)c(OC)c2)cc1	4283	-22.2	nt	3.0	nt	nt	nt
CC(=O)N1CCc2c(sc(NC(=O)Cc3ccc(F)cc3)c2C#N)C1	3995	7.5	-2.2	-2.9	-5.4	-9.5	4.5
COc1ccc(C)cc1NC(=O)Nc1cccc(C(=O)O)c1	2073	-8.9	2.5	-8.0	-3.9	9.5	1.6
Cc1ccn2c(CNCCn3cccn3)c(C(=O)N3CCCCCC3)nc2c1	2315	-5.1	4.5	-1.2	-1.9	10.1	4.1
Cc1ccc(-c2nn(-c3ccc(F)cc3)cc2C(=O)N2CCN(C3CCS(=O)(=O)C3)CC2)cc1 (centres undefined)	8290	-12.7	15.0	nt	2.6	2.0	5.5
Cc1[nH]c(=O)c(C#N)cc1-c1ccncc1	4848	-3.6	4.0	1.0	0.7	2.6	7.5
Cn1c(=O)c([N+](=O)[O-])c(Cl)c2ccccc21	4609	-19.9	5.1	14.2	10.4	8.1	1.7
CC(=O)n1cc(Nc2ccccc2C(=O)O)c2ccccc21	4917	-5.0	-0.5	1.0	nt	nt	1.7
CC(C)(C)NC(=O)C(=O)NNC(=O)c1ccco1	4223	-15.1	7.4	-1.5	9.2	10.7	2.6
O=C(OCC(=O)N1CCc2ccccc21)c1ccc[n+]([O-])c1	4663	-6.3	1.7	-1.2	1.6	5.1	1.4
Cc1ccc2oc(-c3cccc(NC(=O)Cn4cnc5c(=O)n(C)c(=O)n(C)c54)c3)nc2c1	nt	nt	4.2	-4.2	5.7	10.3	1.7
Cc1nnc(N/N=C/c2ccccn2)[nH]c1=O	3415	33.8	nt	47.4	nt	nt	nt
CCOc1ccccc1NC(C)C(=O)Nc1cc(C(F)(F)F)ccc1N1CCOCC1 (centres undefined)	2021	-13.7	1.5	-14.0	9.8	-6.1	-9.1
COc1ccc(N(C(=O)c2ccco2)C(C(=O)NC2CCCCC2)c2cccs2)cc1OC (centres undefined)	2839	-5.7	-6.1	-4.5	8.7	12.2	-9.5

In the list so far, these have a nitro group on carbon:
SMILES	Bead autofluor	PrP UTR inh	Sa ugtP lethal	BJeLR lethal	Mtb hypoxia inh	Mtb hypoxia inh growth	Sa RN4220 lethal
COc1ccc(-n2nc([N+](=O)[O-])c(=NCc3cccnc3)n2O)cc1	9149	-7.5	nt	-7.8	nt	nt	nt
O=C(C1CCCC1)N1CCN=C1SCc1cccc([N+](=O)[O-])c1	4109	-0.7	0.9	-18.2	11.4	7.7	1.3
Cn1c(=O)c([N+](=O)[O-])c(Cl)c2ccccc21	4609	-19.9	5.1	14.2	10.4	8.1	1.7
